From PubChem BioAssay
Lassa entry inh – qHTS for Inhibitors of binding or entry into cells for Lassa Virus | Potency, µM (series often up to 37.9 µM), without a hit: at the top dose activity change, negative = inhibition, hits mostly inhibitors | hit rate 1.2% among 300,000 | Lassa virus pseudotype entry inhibition, cell reporter; control for the full effect not named in the record; active means well fitted inhibition curve with a large enough effect; inconclusive means small, poorly fitted or top-dose-only effect, or effect the other way; inactive means flat fitted curve, though single readings scatter; tested in HEK293 cells; note: % is set by controls: 0 for no effect and ±100 for the full control effect; nearly all actives have a fitted effect of over 50% in size; luciferase read-out
Cruzain inh noDet – qHTS Assay for Promiscuous and Specific Inhibitors of Cruzain (without detergent); Potency, µM, inactives show max response, negative = inhibition, usual class: inhibitors; purified cruzain, Z-FR-AMC fluorescence, no detergent; hit rate 2.3% among 200,000; Cruzipain (Trypanosoma cruzi), P25779;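 note: plate controls were enzyme without inhibitor for no effect and buffer without enzyme for full effect; nearly all actives have a fitted effect of over 40% in size; top concentration of the series not given in the record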
Target sequence (P25779 123-467 limits assumed): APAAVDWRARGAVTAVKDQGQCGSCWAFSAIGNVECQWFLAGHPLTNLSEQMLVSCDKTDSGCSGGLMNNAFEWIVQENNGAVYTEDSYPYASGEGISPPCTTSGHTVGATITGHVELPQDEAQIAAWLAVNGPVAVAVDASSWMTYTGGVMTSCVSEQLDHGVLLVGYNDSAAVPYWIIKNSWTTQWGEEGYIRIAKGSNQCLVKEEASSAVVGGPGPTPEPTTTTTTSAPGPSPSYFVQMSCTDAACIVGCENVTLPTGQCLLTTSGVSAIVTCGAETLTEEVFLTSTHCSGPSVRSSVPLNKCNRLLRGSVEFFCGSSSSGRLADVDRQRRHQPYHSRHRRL
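Purified cruzain at 1.5 nM, pre-incubated 15 min with compound at room temperature in 100 mM sodium acetate pH 5.5, 5 mM DTT, 0.00005% Triton X-100. Reaction started with 2 uM Z-FR-AMC; AMC fluorescence increase over 60 s gives rate.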
2A StopGo – High Throughput Screening for Foot and Mouth Disease Virus Antivirals; hit rate 1.2% among 410,000; Potency, µM (doses to about 57.9 µM), inactives show at the top dose signal change, negative = less light; human cells with a luciferase reporter of 2A StopGo recoding; control for the full effect not named in the record; AID 1159524, 2015; active = well fitted falling curve with a large enough effect; inconclusive = small, poorly fitted or top-dose-only effect; inactive = no such curve, though single readings can be large or run the other way; tested in HEK293T cells; note: % is set by controls: 0 for no effect and ±100 for the full control effect; nearly all actives have a fitted effect of over 45% in size; luciferase light after 4 h
RE007 growth inh – qHTS Assay for Inhibitors of the HIV-1 protein Vpr. S. pombe RE007 Vpr strain, BacTiter-Glo ATP luminescence, 24 h; control for the full effect not named in the record. Potency, µM (titrated, usually from 92.2 µM), without a hit: at the highest dose activity change, negative = less growth. hit rate 0.21% among 360,000. AID 651644, 2012; active = well fitted falling curve with a large enough effect; inconclusive = small, poorly fitted or top-dose-only effect; inactive = no such curve, though single readings can be large or run the other way;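 note: % is set by controls: 0 for no effect and ±100 for the full control effect; nearly all actives have a fitted effect of over 50% in size; the assay follows cell death caused by Vpr and the record does not say whether a fall means rescue or toxicity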
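Fission yeast strain RE007, carrying one chromosomally integrated HIV-1 vpr copy, was seeded at OD 0.01 in PMG+AL medium with 23 nL pinned compound. After 24 h at 30 °C and 99% humidity, viability was read by BacTiter-Glo luminescence.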
SARS PLpro yeast – qHTS of Yeast-based Assay for SARS-CoV PLP; S. cerevisiae expressing SARS-CoV PLpro, growth rescue; control for the full effect not named in the record; Potency, µM (titrated, usually from 32.9 µM), for inactives: top-dose activity, positive = growth rescue; hit rate 0.19% among 330,000; AID 485353, 2010; active means well fitted rising curve with a large enough effect; inconclusive means small, poorly fitted or top-dose-only effect; inactive means no such curve, though single readings can be large or run the other way; note: 0% is about no effect; nearly all actives have a fitted effect of over 55% in size; growth read by luminescence after 48 h
NS1 function inh – qHTS Assay for Inhibitors of Influenza NS1 Protein Function; AID 2326, 2010; S. cerevisiae slowed by influenza A NS1, growth recovery by OD600; hit rate 0.4% among 270,000; Potency, µM (highest dose often 46.1 µM), for inactives: at the highest dose activity, positive = more growth; active means well fitted rising curve with a large enough effect; inconclusive means small, poorly fitted or top-dose-only effect; inactive means no such curve, though single readings can be large or run the other way; note: nearly all actives have a fitted effect of over 50% in size
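OD600 was taken as the measure of yeast growth restored by compound in an NS1-expressing S. cerevisiae strain. Cells had been washed out of glucose medium and diluted 1:100 into galactose -URA medium, pH 6.0.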
Cruzain Triton – qHTS Assay for Promiscuous and Specific Inhibitors of Cruzain (with detergent); Cruzipain (Trypanosoma cruzi), P25779; purified cruzain, Z-FR-AMC fluorescence, 0.01% Triton; Potency, µM, for the others: max response, negative = inhibition, usual class: inhibitors; hit rate 0.43% among 200,000; AID 1478, 2009;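 note: plate controls were neutral wells for no effect and buffer without enzyme for full effect; nearly all actives have a fitted effect of over 40% in size; top concentration of the series not given in the record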
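Read-out: AMC fluorescence (360 nm excitation, 450 nm emission), four reads over 2 min, first-to-third difference used. Conditions: cruzain 1.5 nM, Z-FR-AMC 2 uM, pH 5.5 acetate, 5 mM DTT, 0.01% Triton X-100.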
Marburg entry inh – qHTS for inhibitors of binding or entry into cells for Marburg Virus | Marburg virus pseudotyped entry inhibition, cell reporter; control for the full effect not named in the record; about a third of the inactives were read at about 46 µM | Potency, µM (titrated, usually from 37.8 µM), for inactives: at the highest dose activity change, negative = inhibition, hits mostly inhibitors | hit rate 1.8% among 300,000; active = well fitted inhibition curve with a large enough effect; inconclusive = small, poorly fitted or top-dose-only effect, or effect the other way; inactive = flat fitted curve, though single readings scatter; tested in HEK293 cells; about a fifth of its hits are not listed in these tables; note: % is set by controls: 0 for no effect and ±100 for the full control effect; luciferase read-out
Starred values were filed as active, the others as inactive; ? = inconclusive; . = not tested or not shown; & = joins results of further samples; [ ] = another dose, or the depositor's remark. Unless noted, calls come from the whole dose curve; as a rule, active = well fitted curve in the direction sought with a large enough effect; inconclusive = small, poorly fitted or top-dose-only effect, or another doubt; inactive = no such curve, though single readings can be large; an effect the other way counts as inactive or inconclusive. Potency is the fitted concentration of half-maximal effect.

SMILES	Lassa entry inh	Cruzain inh noDet	2A StopGo	RE007 growth inh	SARS PLpro yeast	NS1 function inh	Cruzain Triton	Marburg entry inh
CC(C)(C)P(=O)(CO)c1ccccc1 (stereo not drawn)	16%	-6%	-14%	-15%	2%	2%	2.7%	-4%
O=C(Cn1ncc2c3ccccc3n(Cc3ccc(F)cc3)c2c1=O)NCCC1=CCCCC1	?	5%	-9%	.	.	.	-1.0%	6%[46.1 µM]
O=C(CNC(=O)COc1ccccc1)NCc1ccccc1F	23%	6%	-14%	1%	7%	4%	3.8%	?
Cn1c(CNC(=O)c2ccco2)nnc1SCC(=O)N1c2ccccc2Sc2ccccc21	1%	0%	-17%	2%	0%	2%	3.6%	0%&0%[46.1 µM]
Cc1ccc(N/C(CSC(N)=O)=N\S(=O)(=O)c2ccc(C)cc2)cc1	0%	-5%	41%[activator]	2%	-1%	2%	2.1%	9%
COc1ccc(S(=O)(=O)N(C)CC(=O)N2CCN(C)CC2)cc1C	17%	8%	-19%	8%	3%	-1%	4.2%	11%
CC(C)c1nc(SCC(=O)Nc2ccc(C(=O)O)cc2)c2c3c(sc2n1)CCCC3	?	.	0%	31%	-18%	-5%	.	?
CCCCC(=O)C1C(=O)NC(=O)NC1=O	2%	-2%	-7%	6%	-3%	-1%	0.2%	8%
CC(CNC(=O)c1nnc(Cc2cccc(F)c2)o1)c1ccccc1 (stereo not drawn)	3%[46.1 µM]	11%	-12%	.	.	.	-0.3%	.
Cc1ccccc1-c1ccc(C(=O)Nc2cccc(F)c2)o1	1%	-12%	40%[activator]	4%	-58%	-107%	-11%	22%
Cc1ccc(N(CC(=O)NCc2ccccc2)C(=O)CCC(=O)Nc2ccccn2)cc1	-29%	.	0%	4%	-3%	-6%	.	-28%[46.1 µM]
Cc1cc(OCCN2CC(C)OC(C)C2)ccc1[N+](=O)[O-] (stereo not drawn)	-34%[14.3 µM]	5%	-19%	-2%	5%	-1%	5.1%	-1%
S=C(c1ccccc1)N1CCN(c2ccccc2)CC1	-8%	.	-26%	-11%	.	.	.	0%
CC(=O)N1CCc2cc(S(=O)(=O)NCCN3CCC(C)CC3)ccc21	-1%	2%	-6%	14%	1%	-4%	3.0%	-1%
N#Cc1cc2c(nc1SCC(=O)Nc1sc3c(c1C#N)CCC3)CCCCC2	0%	?	3%	-7%	5%	3%	8.2%	?
COc1cc2[nH]c(=S)nc(NCc3cccnc3)c2cc1OC	.	.	-2%	-6%	2%	-3%	.	-5%
CC(C)CCC(=O)N1CCC(N2CCC(C(=O)NCc3ccccn3)CC2)CC1	14%[46.1 µM]	.	5%	16%	6%	6%	.	24%[46.1 µM]
COc1ccc(CNC(=O)Cn2cc([N+](=O)[O-])cn2)cc1	3%	.	1%	11%	.	.	.	-1%[46.1 µM]
CC(=O)c1ccc(NC(=O)c2ccc(-c3ccc(Cl)cc3)o2)cc1	-1%[46.1 µM]	6%	18%	.	.	.	-3.9%	.
CC(=O)N/C(=C\c1ccc(Cl)cc1)C(=O)O	.	.	0%	-2%	1%	3%	.	.
CCN1C(=O)C(CC(=O)Nc2ccc(OC)cc2)N(CCN2CCOCC2)C1=S (stereo not drawn)	.	.	-16%	-3%	0%	0%	.	.
COCCNc1oc(-c2ccccc2Cl)nc1S(=O)(=O)c1ccc(C)cc1	-27%	.	14%	12%	9%	.	.	-24%
CCOc1cc(C(=O)CCC(=O)OCC(=O)Nc2ccc(C)c(S(=O)(=O)N(C)C)c2)ccc1O	20%[46.1 µM]	.	63%[activator]	7%	2%	.	.	-28%[46.1 µM]
Cc1ccc(NC(=O)CN(C)S(=O)(=O)c2cnc[nH]2)cc1	16%[46.1 µM]	19%	-8%	.	.	.	-0.9%	0%[46.1 µM]
Cc1occc1C(=O)Nc1cc(=O)n(C)c(=O)n1C	-1%	-8%	-10%	-4%	-1%	-4%	6.4%	13%
CCOC(=O)CCSc1nnc(-c2cccnc2)n1-c1ccccc1OC	13%	6%	10%	1%	2%	2%	1.0%	1%
COc1ccc(N(C)C(=O)CC2(CC(=O)O)CCCCC2)cc1	-3%	1%	-24%	7%	7%	2%	0.9%	0%
Cc1ccc(S(=O)Cc2nc(-c3ccc(C(=O)NC(C)c4ccccc4)cc3)oc2C)cc1 (stereo not drawn)	-14%[46.1 µM]	?	-30%	.	.	.	-1.0%	.
Cc1ccc(-c2nn(-c3ccccc3)cc2CSC(=N)N)cc1	?	1%	-18%	7%	0%	-6%	-1.5%	?
CC(=O)N1CCc2c(sc3c2c(=O)n(CCc2ccccc2)c(=O)n3Cc2ccc(Cl)cc2)C1	.	?	?	.	.	.	-7.0%	?
c1ccn(-c2ccc(N3CCOCC3)cc2)c1	10%	-14%	7%	-23%	5%	-32%	2.5%	13%
CCN1CCC(=NNC(=O)c2ccco2)CC1	26%	-2%	-5%	-1%	3%	3%	1.8%	?
CN1C(C(=O)NCc2cccc(C(F)(F)F)c2)CC2Cn3c(nc4cc5ccccc5cc43)C21 (stereo not drawn)	.	.	?	5%	-7%	5%	.	.
O=[N+]([O-])c1cccc(/C=C/c2nc3ccc([N+](=O)[O-])cc3[nH]2)c1	?	-1%	0%	-11%	5%	11%	-3.1%	7%[46.1 µM]
O=C1NC(=O)N(Cc2ccccc2)C(=O)/C1=C/c1cnc(-c2ccccc2)nc1	2%	.	12%	4%	2%	.	.	10%[46.1 µM]
COC(=O)CSc1ncnc2c1cnn2Cc1ccccc1	-1%	-4%	-4%	-8%	6%	-46%	-1.6%	14%
O=C(Nc1ccc2oc(-c3ccncc3)nc2c1)c1ccc([N+](=O)[O-])o1	-26%[46.1 µM]	.	8%	-22%	-10%	-40%	.	?
COc1ccccc1N1CCN(C(=O)Cn2c(=O)n3nc(-c4cccc(F)c4)nc3c3ccccc32)CC1	-15%[46.1 µM]	8%	-2%	.	.	.	0.4%	.
CCc1ccccc1NC(=O)N1C2CCCC1CC(NC(C)=O)C2 (stereo not drawn)	-3%	5%	0%	13%	-2%	-1%	1.3%	8%
N#Cc1c(-c2ccccc2)nc(-c2cccnc2)[nH]c1=O	11%	.	8%	15%	2%	7%	.	13%
O=S1(=O)c2ccccc2N=NN1Cc1ccc(Cl)c(Cl)c1	.	?	.	.	.	18%	22µM*	-3%
Cc1occc1C(=O)Nc1sc2c(c1C(N)=O)CCC(C(C)(C)C)C2 (stereo not drawn)	-1%	?	.	16%	7%	1%	-7.0%	.
CCN(C(=O)Cn1nnc2sc3c(c2c1=O)CCC(C(C)(C)C)C3)c1cccc(C)c1 (stereo not drawn)	11%[46.1 µM]	-4%	?	.	.	.	0.2%	-2%[46.1 µM]
Cc1cccc(NC(=O)CSc2nnc(CNC(=O)c3ccco3)o2)c1C	-3%[46.1 µM]	.	-1%	-2%	-5%	8%	.	-2%[46.1 µM]
CC(C(=O)NC1CCCc2ccccc21)N1CCN(c2ccc(F)cc2)CC1 (stereo not drawn)	-18%	-5%	-12%	10%	6%	-15%	-0.4%	-35%
CC(=O)c1cccc(N(CC(=O)N2CCCC2)S(C)(=O)=O)c1	1%	-11%	11%	-2%	-1%	1%	2.3%	4%
COc1ccc(Cc2nnc(NS(=O)(=O)c3ccc([N+](=O)[O-])cc3)s2)cc1	-28%[46.1 µM]	.	15%	3%	5%	5%	.	5%[46.1 µM]
COc1ccc(NC(=O)CS(=O)c2ccccc2Cl)cc1 (stereo not drawn)	3%[46.1 µM]	.	23%	4%	-2%	3%	.	?
CCS(=O)(=O)N1CCN(C(=O)c2cccc(OC)c2)CC1	1%	-10%	9%	8%	-3%	4%	0.6%	1%
COc1cccc(NC(=S)Nc2cccc3ccccc23)c1	4%[46.1 µM]	.	15%	-6%	16%	?	.	-7%[46.1 µM]
COC(=O)CN1C(=S)N(C)C(=O)C1CC(=O)Nc1ccccc1 (stereo not drawn)	29%	-3%	-13%	6%	19%	9%	-4.5%	-8%
O=C(O)CN1CCN(Cc2ccccc2Cl)C1=O	-2%	-5%	-2%	-3%	-4%	?	2.5%	16%
CCOC(=O)N1CCN(C(=O)CN(C2CCCCC2)S(=O)(=O)c2ccc(F)cc2)CC1	-12%	12%	.	-12%	1%	-1%	1.2%	-13%
CCOC(=O)N1CCN(C(=O)CSc2ccc(-c3cccc(OC)c3)nn2)CC1	?	.	?	10%	-2%	.	.	?
O=C(CN1C(=O)CSC1=O)Nc1ccc(C(=O)O)cc1	-15%	1%	-21%	11%	-1%	2%	3.1%	-2%
CCn1c(=O)n(CC)c2cc(N3CCCC3)c(NC(=O)c3ccccc3F)cc21	.	.	-42%	-2%	7%	-6%	.	?
Cc1nc(-c2ccccn2)sc1C(=O)O	11%	.	59%[activator]	-2%	-2%	.	.	?
CC(=O)c1ccc(N2CCN(C(=O)c3ccccc3SCC(=O)NCc3ccco3)CC2)c(F)c1	-4%	.	?	0%	.	.	.	?
Cc1cc(C(=O)NCc2ccc(S(N)(=O)=O)cc2)ccc1[N+](=O)[O-]	-3%	-9%	-17%	-1%	10%	0%	-3.8%	2%
COc1cccc(C(=O)N(Cc2ccc(N(C)C)cc2)C2CCS(=O)(=O)C2)c1 (stereo not drawn)	-10%	10%	-3%	18%	-1%	-19%	4.1%	17%[46.1 µM]
